Beta2AR agonist = beta2AR agonists driving receptor internalization, primary screen, cell-based, FAP fluorogen, flow cytometry. Am2.2-beta2AR cells; reference of the scale not given here. response, % (concentration not given with the values). hit rate 0.43% among 340,000. AID 504454, 2011;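 active = response above a set limit, near 3 SD of response in nonfluorescent compounds, cut at about 42% in these data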;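 also: stock transfer was 100 nL into about 11 µL; a reference agonist was the positive control; negative values mostly stem from fluorescent compounds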
HNF4A DNA FP = change in binding of human HNF4A to DNA, primary screen, biochemical, fluorescence polarization, FITC-DNA | Hepatocyte nuclear factor 4-alpha (Homo sapiens), P41235 | 1 h | activity change, % at 10 µM | hit rate 0.3% among 360,000 | AID 1224865, 2016; in the data active = activity change above about 30%, passing the limit was not always enough;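 also: controls were the assay level and a saturating level of protein; the project sought stronger binding though the title names inhibitors; some compounds called inactive have numbers as strong as hits; positive values seem to mean higher polarization but the record does not say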
Vif TR-FRET = inhibitors of Vif binding to APOBEC3G peptide, primary screen, biochemical, TR-FRET, GST-Vif 1-94, biotin-A3G peptide, dose response retest (AID 1117319). Virion infectivity factor (Human immunodeficiency virus type 1 group M subtype B (isolate …. TR-FRET GST-Vif / biotin-A3G peptide binding; higher % means a stronger effect; test concentration not given here; strong numbers were not always called active. inhibition, %, or IC50 in µM where a hit was titrated. hit rate 0.57% among 260,000;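 active = above the screen mean plus three standard deviations and confirmed in dose response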;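 also: Vif residues 1-94 fused to GST binding biotinylated APOBEC3G peptide 110-148; 0% = full assay without inhibitor and 100% = GST in place of GST-Vif; retest series ran down from 100 µM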
Numbers without * were called inactive. This is a subset. The share of hits here may be higher or lower than overall.

`COc1ccc(-n2[nH]c3c(cnc4ccccc43)c2=O)cc1` gave HNF4A DNA FP 0.3.
For O=C1Cc2c([nH]c3ccc([N+](=O)[O-])cc23)-c2ccccc2N1 the results were Beta2AR agonist -4 and HNF4A DNA FP -1.1.
COc1c(O)cc2c(c1O)[C@@H]1OC(CO)C(O)C(O)[C@H]1OC2=O (stereo not given in full) was read as Beta2AR agonist 9 and HNF4A DNA FP 0.9.
Screening CC(=O)Nc1ccccc1 returned Beta2AR agonist -1 and HNF4A DNA FP -4.6.
For Nc1c2c(nc3ccccc13)CCCC2O (stereo not given) the results were Beta2AR agonist -1 and HNF4A DNA FP -3.4.
Screening CCn1cc(C(=O)O)c(=O)c2cc(F)c(N3CCNCC3)nc21 returned Beta2AR agonist -16 and HNF4A DNA FP 2.2.
COc1ccc(/C=C/C(=O)O)cc1 was read as Beta2AR agonist 1 and HNF4A DNA FP 4.0.
For Cc1cc(C)cc(OCC2CNC(=O)O2)c1 (stereo not given) the results were HNF4A DNA FP -4.0 and Vif TR-FRET -3%.
